SMN2 splice up: SMN2 splice variant enhancement. HEK293 SMN2-luciferase splicing reporter, luminescence, 30-36 h. Potency, µM (series often up to 46.1 µM), for inactives: top-dose activity change, positive = activation, actives largely listed as activators. actives 2.8% (n = 210,000). AID 1458; also: % of control where 0% means no effect; nearly all actives have a fitted effect of over 55% in size
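HEK293 cells carry an SMN2 minigene-luciferase reporter in which exon 7 inclusion puts luciferase in frame. Cells were seeded at 2000 cells/well, attached for 10-12 hours, then exposed to compounds for 30-36 hours at 37C before ONE-Glo luminescence.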
TRb SRC2 PPI: disrupts binding of human TR beta to SRC2 | P10828 | actives 0.065% (n = 280,000) | Potency, µM (highest dose often 106 µM), for inactives: at the top dose activity change, negative = inhibition, most hits filed as inhibitors | TRbeta-SRC2 peptide binding, fluorescence polarization; receptor liganded with 1 µM T3;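 also: plate controls were bound peptide for no effect and peptide without receptor for full effect; nearly all actives have a fitted effect of over 50% in size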
Target sequence (P10828 whole entry, looked up): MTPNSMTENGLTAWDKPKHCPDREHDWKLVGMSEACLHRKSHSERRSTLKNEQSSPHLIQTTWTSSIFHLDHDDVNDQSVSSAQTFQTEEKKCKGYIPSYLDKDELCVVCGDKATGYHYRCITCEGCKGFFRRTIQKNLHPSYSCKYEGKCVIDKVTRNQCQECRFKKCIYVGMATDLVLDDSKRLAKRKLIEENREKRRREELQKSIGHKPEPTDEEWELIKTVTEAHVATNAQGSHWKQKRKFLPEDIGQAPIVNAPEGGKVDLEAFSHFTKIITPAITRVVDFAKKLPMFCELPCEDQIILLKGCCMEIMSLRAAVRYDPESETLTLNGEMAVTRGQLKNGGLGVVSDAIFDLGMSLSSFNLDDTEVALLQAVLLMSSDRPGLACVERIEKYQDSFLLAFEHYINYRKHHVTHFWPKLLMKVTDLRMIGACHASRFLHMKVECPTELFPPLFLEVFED
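Human TRb ligand-binding domain (0.6 uM) is mixed with 20 nM Texas Red SRC2 peptide and 1 uM T3; after compound addition and 5 hr at ambient temperature, polarization is measured and normalized to unbound and bound controls.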
TexasRed fluor: counter-screen for TRb-SRC2 inhibitors: fluorescence interference | AID 1479 | actives 0.29% (n = 280,000) | Potency, µM (top dose mostly 106 µM), inactives show top-dose fluorescence change, negative = quenching | TRb/SRC2 Texas Red total fluorescence interference; active = well fitted curve in either direction with a large enough effect; inconclusive = small, poorly fitted or top-dose-only effect; also: % is scaled to controls: 0 for no effect and ±100 for the full control effect
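Human TRβ ligand-binding domain (0.6 uM) and Texas Red SRC2 peptide (20 nM) in Tris buffer with 1 uM T3 and 5% DMSO were incubated with pinned compound for 5 hr at ambient temperature. Total fluorescence was computed as S + 2P (555/632 nm).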
ALDH1A1 block: blocks purified human ALDH1A1 activity; P00352; Purified ALDH1A1, NADH fluorescence, propionaldehyde substrate; Potency, µM (highest dose often 75.3 µM), inactives show top-dose activity, negative = inhibition, most hits filed as inhibitors; actives 7.3% (n = 220,000); AID 1030; active = well fitted inhibition curve with a large enough effect, not every such curve was filed as active; inconclusive = small, poorly fitted or top-dose-only effect, or another doubt; inactive = no such curve, though single readings can be large or run the other way;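 also: plate controls were no enzyme wells and a reference inhibitor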
Target sequence (P00352 whole entry, looked up): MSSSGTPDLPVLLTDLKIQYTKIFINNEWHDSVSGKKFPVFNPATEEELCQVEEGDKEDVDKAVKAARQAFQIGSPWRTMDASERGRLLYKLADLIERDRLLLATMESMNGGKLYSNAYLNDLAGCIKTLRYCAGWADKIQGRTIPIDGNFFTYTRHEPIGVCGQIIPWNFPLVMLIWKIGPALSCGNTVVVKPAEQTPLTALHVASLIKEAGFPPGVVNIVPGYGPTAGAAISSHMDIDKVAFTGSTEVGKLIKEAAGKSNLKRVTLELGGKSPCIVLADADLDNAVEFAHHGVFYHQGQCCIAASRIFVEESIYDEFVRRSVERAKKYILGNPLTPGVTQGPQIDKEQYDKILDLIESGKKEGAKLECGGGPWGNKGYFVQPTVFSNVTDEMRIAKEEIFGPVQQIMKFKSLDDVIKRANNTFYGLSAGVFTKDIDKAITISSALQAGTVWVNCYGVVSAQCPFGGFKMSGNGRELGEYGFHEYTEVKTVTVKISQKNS
RECQ1 helicase: blocks DNA unwinding by human RECQ1; P46063; RECQ1 DNA unwinding, red fluorescence kinetic read; Potency, µM (series often up to 57.3 µM), inactives show at the top dose activity, negative = inhibition, hits mostly inhibitors; actives 0.54% (n = 240,000); AID 2549;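 also: plate controls were vehicle for no effect and no enzyme for full effect; nearly all actives have a fitted effect of over 30% in size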
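RECQ1T1 50 nM; forked duplex (20 bp + 30-nt ss tails) 200 nM, ATP 2 mM final; pH 8.0, 2 mM MgCl2, 2.5 ug/ml poly(dI-dC); 15 min compound preincubation; discontinuous kinetic read over 2 h at RT.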
GoLoco inh red: blocks human Gai1 binding to RGS12 GoLoco peptide, red readout; P63096; Gai1:RGS12 GoLoco peptide FP, rhodamine, 10 min; Potency, µM (highest dose often 61.6 µM), for the others: at the top dose activity, negative = inhibition, most hits filed as inhibitors; actives 0.44% (n = 230,000); active = well fitted inhibition curve with a large enough effect, not every such curve was filed as active; inactive = no such curve, though single readings can be large or run the other way; also: % is scaled to controls: 0 for no effect and ±100 for the full control effect; nearly all actives have a fitted effect of over 30% in size; many of its hits are not listed in these tables
LMNA splice mod: modulators of lamin A splicing; actives 0.01% (n = 200,000); AID 1487; Potency, µM (doses to about 46.1 µM), without a hit: top-dose ratio change, negative = inhibition, usual class: inhibitors; HeLa LMNA splicing GFP/RFP minigene ratio, 48 h; active = well fitted inhibition curve with a large enough effect in the signal ratio, with a control signal flat, not every such curve was filed as active; inconclusive = small, poorly fitted or top-dose-only effect, or effect the other way, or a change in a side signal; the % refers to the signal ratio; also: % is scaled to controls: 0 for no effect and ±100 for the full control effect
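S3 HeLa cells stably expressing lamin A-EGFP splicing minigene plus DsRed2, 600 cells/well, 48 h compound exposure at 37C. Laser-scanning cytometry; analysed as GFP (500-530 nm)/RFP (575-640 nm) total intensity ratio; 0.5% DMSO vehicle.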
Numbers without * were called inactive; i = inactive; ? = inconclusive; . = no result given; [ ] = another dose, or the depositor's remark. Unless noted, calls follow the shape of the dose curve; as a rule, active = well fitted curve in the direction sought with a large enough effect; inconclusive = small, poorly fitted or top-dose-only effect, or another doubt; inactive = no such curve, though single readings can be large; an effect the other way counts as inactive or inconclusive. Potency is read from the fitted curve at half-maximal effect. Only part of the results is shown (hit frequency here may not be typical).

SMILES | SMN2 splice up | TRb SRC2 PPI | TexasRed fluor | ALDH1A1 block | RECQ1 helicase | GoLoco inh red | LMNA splice mod
COCCN1C=C2C(=O)C(C)(OC(=O)CCC(=O)OC)C(=O)C=C2C=C1C1CC1 (configuration not stated) | -3%[9.22 µM] | 8%[11.2 µM] | -5%[11.2 µM] | 2%[13.5 µM] | 18%[11.5 µM] | -3%[14.2 µM] | 3%[9.22 µM]
Cc1cccc(CN2CCN(CC(=O)O)C2=O)c1 | 20% | -3% | 0% | ? | ? | -28% | 14%
CCC(C)NCCCCOc1ccc(Cl)cc1C (configuration not stated) | -22% | -11% | 0% | ? | i | -11% | -1%
Cc1cc2c(c(=O)n1CCN(C)C)C(c1ccccc1Br)C(C#N)=C(N)O2 (configuration not stated) | -7% | -2% | -10% | ? | -6% | -1% | 0%
CN(C)S(=O)(=O)c1cc(NC(=O)CNCCN2CCOCC2)ccc1Cl | . | -9% | -5% | ? | -3% | 3% | ?
CC1CN(CC(O)COC(c2ccccc2)c2ccccc2)CC(C)O1 (configuration not stated) | 2% | 3% | 5% | 25µM* | -2% | 7% | -5%
CC(C)CC(=O)N1CCN(CC2CC=CCC2)CC1 (configuration not stated) | -6% | 0% | 1% | ? | i | -9% | -5%
COCCCNCCCCOc1ccc(OCc2ccccc2)cc1 | 3% | -3% | 0% | -1% | i | 4% | ?
CCOC(=O)NC1(NCC(C)C)Oc2ccccc2O1 | -9% | 1% | -3% | ? | ? | -10% | 5%
CC1CCN(CCOc2ccccc2-c2ccccc2)CC1 | 5% | -5%[53 µM] | -1%[53 µM] | ? | 7% | -5% | 2%
CC(C)OC(=O)c1cccnc1N1CCN(c2cccc(Cl)c2)CC1 | -25% | -6% | -5% | 0% | i | 10% | -9%[9.22 µM]
COC(=O)c1sc(NC(=O)/C=C/c2ccc(C)o2)nc1C | ? | 4% | 2% | ? | -5% | 3% | -6%
C=CCNC(=O)c1cc2cccc(OC)c2oc1=O | 15% | 5% | -3% | -5% | 3% | 9% | .
Cc1cnc(NC(=O)C(C)N2CCN(C)CC2)s1 (configuration not stated) | 20% | 3% | -4% | ? | 1% | -2% | .
CC1CCN(CCOc2ccc(OCc3ccccc3)cc2)CC1 | 1% | 2% | -3% | 1% | i | 1% | 6%
COc1ccccc1Nc1nc(C)c(C(=O)Nc2ccccc2)s1 | 5% | 0% | -1% | ? | i | -1% | -10%[46 µM]
COc1ccc(OC)c(CN2CCN(C(=O)c3cccc4ccccc34)CC2)c1 | -3% | 0% | -3% | 25µM* | -1% | 3% | ?
CN(CCO)c1nc(N)c(C#N)c(CC#N)c1C#N | . | -6% | 0% | 3% | -11% | 9% | .
Cc1cccc(C(=O)NNC2=CC(=O)CC(C)(C)C2)c1O | . | 4% | -1% | . | -5% | 12% | .
Cc1cc(C(=O)NCc2ccc(S(N)(=O)=O)cc2)ccc1[N+](=O)[O-] | -5% | -2% | 0% | 11% | 2% | 0% | -11%

Structures listed so far that contain four or more nitrogen atoms:
SMILES | SMN2 splice up | TRb SRC2 PPI | TexasRed fluor | ALDH1A1 block | RECQ1 helicase | GoLoco inh red | LMNA splice mod
Cc1cc2c(c(=O)n1CCN(C)C)C(c1ccccc1Br)C(C#N)=C(N)O2 (configuration not stated) | -7% | -2% | -10% | ? | -6% | -1% | 0%
CN(C)S(=O)(=O)c1cc(NC(=O)CNCCN2CCOCC2)ccc1Cl | . | -9% | -5% | ? | -3% | 3% | ?
Cc1cnc(NC(=O)C(C)N2CCN(C)CC2)s1 (configuration not stated) | 20% | 3% | -4% | ? | 1% | -2% | .
CN(CCO)c1nc(N)c(C#N)c(CC#N)c1C#N | . | -6% | 0% | 3% | -11% | 9% | .

(further entries)
SMILES | SMN2 splice up | TRb SRC2 PPI | TexasRed fluor | ALDH1A1 block | RECQ1 helicase | GoLoco inh red | LMNA splice mod
N#CC1=C2SCN(Cc3ccco3)CN2C(=O)CC1c1ccccc1F (configuration not stated) | 11% | -23% | -2% | 10µM* | -13% | -15% | 3%
CC(NC(=O)CCc1ccc(S(=O)(=O)NC2CCCCC2)cc1)c1ccccc1 (configuration not stated) | 15% | -6% | -3% | -15% | -1% | -3% | -22%
Cc1ccc(C(C)(C)C)c(OCCOCCN2CCCC2)c1 | -7% | -7% | 1% | -6% | i | 6% | 4%
COC(=O)c1ccc(NC(=O)C(=O)N2CCN(C(=S)Nc3cccc(C)c3C)CC2)cc1 | -22% | 6% | 5% | 0% | -7% | 0% | -11%
COc1cc(CN(C)CCc2ccccn2)cc(OC)c1OC | 10% | 7% | 0% | ? | -11% | -11% | -7%
CON(C)S(=O)(=O)c1ccc2c(c1)N(Cc1ccc(C)cc1)C(=O)C1CCCN21 (configuration not stated) | ? | 17% | 11% | 10µM* | -11% | 50%[activator] | -1%[46 µM]
O=C(CN1CCC(N2CCCCC2)CC1)N1CCOCC1 | 7% | 0% | -1% | ? | -3% | -11% | .
Cc1cc(OCCOCCN(C)C)ccc1Cl | -2% | -8% | -1% | -8% | -7% | 2% | -6%
COc1ccc(/C(=N/OC(C)=O)c2nccc3cc(OC)c(OC)cc23)cc1OC | . | -5% | -5% | . | i | 4% | .
COc1ccc(/C=C/c2nc(C)c(-c3ccccc3)c(=O)[nH]2)cc1OC | -1% | -3% | -6% | ? | -1% | 5% | -11%
CCCc1cc(-c2n[nH]c(=S)n2-c2cccc(C)c2)cs1 | 14% | 3% | -1% | ? | 11% | 11% | -12%[9.22 µM]
CN(C)/C=C/C(=C\C(=O)C(F)(F)F)Nc1ccc(C(F)(F)F)cc1 | -16% | 3% | -1% | 8% | -2% | 37%[activator] | -9%[46 µM]
O=C(NCC1CCCO1)c1ccc2c(=O)n(CCc3ccccc3)c(=O)[nH]c2c1 (configuration not stated) | 15% | -5% | 1% | ? | i | 2% | -4%
O=C(CN1CC(=O)Oc2ccccc21)OCC(=O)c1ccc(F)cc1 | 9% | -6% | -1% | 20µM* | 2% | 5% | ?
C=CCc1cc(Cl)ccc1OCCCNCCO | . | 4% | -3% | -14% | -7% | 1% | ?
CCC(=O)Nc1nc(C)c(Oc2ccccc2)c(=O)[nH]1 | . | -3% | 2% | 2% | -3% | . | 6%
Cc1cc(=O)n2[nH]c(NCc3c(F)cccc3Cl)nc2n1 | 0% | -4% | -2% | 1% | i | 6% | -15%[46 µM]
O=C(CSc1ccc2nnc(-c3cccnc3)n2n1)N1CCc2ccccc21 | -9% | -8% | -1% | ? | -9% | -1% | 1%
CCOC(=O)C1=C(C)NC(SCc2cc(=O)[nH][nH]2)=C(C#N)C1c1cccs1 (configuration not stated) | 9% | ? | -1% | 2% | -22% | 12% | 6%
OCCOCCNc1ncnc2c1cnn2-c1ccc(Cl)cc1 | -9% | -1% | -5% | 1% | -5% | 6% | 13%
COc1ccc(CN=C(Nc2ccccc2)SC2CC(=O)NC2=O)cc1 (configuration not stated) | . | 3% | 10% | -13% | -13% | 10% | .
CCOC(=O)CNC(=O)CSc1nc(-c2ccc(C)cc2)ns1 | 2% | 10% | -2% | ? | 13% | 10% | .
COCC(C)N=C1NN=C(c2ccc(NC(C)=O)cc2)CS1 (configuration not stated) | ? | -9% | -2% | ? | 0% | -2% | -6%[46 µM]
O=C1NC(=S)N/C1=C/c1cccc([N+](=O)[O-])c1O | -6% | 3% | -9% | 22µM* | -9% | 19% | 1%
CSc1ccccc1NC(=O)CN(C)Cc1cccc(Cl)c1 | -3% | 4% | -2% | ? | i | -9% | .
COCCCNC(=S)NNC(=O)c1ccccn1 | -29% | 4% | 1% | ? | i | 4% | -3%[46 µM]
CC1CCN(CCOCCOc2ccccc2-c2ccccc2)CC1 | -13% | -5% | 0% | -2% | 4% | 7% | ?
O=C1NC(c2cccc([N+](=O)[O-])c2)Oc2ccccc21 (configuration not stated) | -26% | -2% | -1% | -3% | -13% | -1% | .
C=CCNC(=S)NNC(=O)c1cc(O)ccc1O | 6% | 4% | -3% | -1% | -7% | 22% | ?
O=C(Nc1cccc2ccccc12)N1CCCN(c2c(Cl)cncc2Cl)CC1 | . | -6% | -3% | 1% | -2% | 8% | ?
CC1(OC(=O)C2CCCC2)C(=O)C=C2C=C(c3ccsc3)N(C3CC3)C=C2C1=O (configuration not stated) | -3%[9.22 µM] | 1%[11.2 µM] | -5%[11.2 µM] | -2%[13.5 µM] | 19%[11.5 µM] | -1%[14.2 µM] | ?
CNC(=O)CO/N=C/c1ccc(N(C)C)cc1 | ? | 4% | 0% | ? | -1% | -3% | -12%[46 µM]
Cc1ccccc1OCC(O)CN1CCN(CC(O)COc2ccccc2C)CC1 (configuration not stated) | -77%[inhibitor] | 1% | -2% | -5% | 0% | -9% | ?
CC(NCc1ccccc1Cl)C(=O)Nc1ccc(S(=O)(=O)N2CCCC2)cc1 (configuration not stated) | 5% | -8% | -2% | ? | -6% | -2% | 4%
C/C=C/c1ccc(OCCCCN2CCC(C)CC2)c(OC)c1 | -7% | 4% | -1% | -13% | -4% | 4% | .
CC(C)OC(=O)Nc1ccc2c(c1)N(C(=O)N1CCN(C)CC1)c1ccccc1CC2 | . | 7% | -3% | . | -15% | 4% | .
N#CCN1C(=O)C2CCCN2c2ccc(S(=O)(=O)N3CCOCC3)cc21 (configuration not stated) | 17% | -6% | -1% | 10µM* | -16% | 18% | .
COc1ccc([C@H]2C=C(C(=O)O)O[C@@H](OCc3ccc(CO)cc3)C2)cc1 | . | -2% | -1% | . | i | -1% | .
O=C(c1ccco1)N1CCN(c2ncnc3sc4c(c23)CCC4)CC1 | -15% | -13% | 2% | 10µM* | ? | -14% | -3%
Brc1cccc(OCCCN2CCCCCC2)c1 | -6% | -4% | -6% | 13µM* | i | 2% | .
CCC(=O)Nc1ccc(S(=O)(=O)N2CCCCC2)cc1OC | -33%[inhibitor] | -2% | -2% | -4% | -9% | 7% | -4%
COc1cc(OC)cc(C(=O)N2CCN(Cc3ccccc3[N+](=O)[O-])CC2)c1 | . | 6% | -2% | 1.4µM* | 4% | -16% | -4%[46 µM]
CN(C)Cc1ccc(F)cc1Sc1ccc(Cl)cc1Cl | 10% | 5% | -2% | 3% | -11% | -3% | -9%
COc1cc(CNc2ccc(C)c(C)c2)cc(OC)c1OC | -2% | 6% | -1% | 8.9µM* | -11% | -48% | ?
CCOC(=O)Cc1csc(NC(=O)NC2(C(F)(F)F)Oc3ccc(Cl)cc3O2)n1 (configuration not stated) | 28% | 4% | -1% | -8% | -2% | -14% | ?
